LASV entry inh – qHTS for Inhibitors of binding or entry into cells for Lassa Virus; Potency, µM (doses to about 37.9 µM), for the others: at the top dose activity change, negative = inhibition, most hits filed as inhibitors; AID 540256, 2011; 300,000 compounds, 1.2% hits; Lassa virus pseudotype entry inhibition, cell reporter; control for the full effect not named in the record; active means well fitted inhibition curve with a large enough effect; inconclusive means small, poorly fitted or top-dose-only effect, or effect the other way; inactive means flat fitted curve, though single readings scatter; tested in HEK293 cells; further: on the % scale 0 is the no-effect control and ±100 the full control effect; nearly all actives have a fitted effect of over 50% in size; luciferase read-out
SARS PLpro yeast – qHTS of Yeast-based Assay for SARS-CoV PLP. Potency, µM (titrated, usually from 32.9 µM), for inactives: at the top dose activity, positive = growth rescue. S. cerevisiae expressing SARS-CoV PLpro, growth rescue; control for the full effect not named in the record. 330,000 compounds, 0.19% hits; active means well fitted rising curve with a large enough effect; inconclusive means small, poorly fitted or top-dose-only effect; inactive means no such curve, though single readings can be large or run the other way; further: 0% is about no effect; nearly all actives have a fitted effect of over 55% in size; growth read by luminescence after 48 h
Cruzain inh Det – qHTS Assay for Promiscuous and Specific Inhibitors of Cruzain (with detergent) | Potency, µM, inactives show max response, negative = inhibition, hits mostly inhibitors | purified cruzain, Z-FR-AMC fluorescence, 0.01% Triton | 200,000 compounds, 0.43% hits;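 further: plate controls were neutral wells for no effect and buffer without enzyme for full effect; nearly all actives have a fitted effect of over 40% in size; top concentration of the series not given in the record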
Target sequence (P25779 123-467 limits assumed): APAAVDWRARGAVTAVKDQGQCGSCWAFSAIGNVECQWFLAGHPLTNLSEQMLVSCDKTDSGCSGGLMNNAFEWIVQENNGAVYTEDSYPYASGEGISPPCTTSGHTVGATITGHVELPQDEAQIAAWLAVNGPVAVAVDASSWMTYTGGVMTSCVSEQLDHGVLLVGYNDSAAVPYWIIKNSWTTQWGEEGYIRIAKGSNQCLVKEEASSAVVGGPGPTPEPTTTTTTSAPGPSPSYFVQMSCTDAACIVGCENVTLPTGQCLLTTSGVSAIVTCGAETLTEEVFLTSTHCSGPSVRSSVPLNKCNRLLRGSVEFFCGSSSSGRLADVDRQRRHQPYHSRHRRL
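Z-FR-AMC hydrolysis (2 uM substrate) by cruzain (1.5 nM) monitored kinetically at ex 360/em 450 nm after 15 min room-temperature compound exposure; 0.01% Triton X-100, pH 5.5, 5 mM DTT.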
MARV entry inh – qHTS for inhibitors of binding or entry into cells for Marburg Virus. 300,000 compounds, 1.8% hits. Marburg virus pseudotyped entry inhibition, cell reporter; control for the full effect not named in the record; about a third of the inactives were read at about 46 µM. Potency, µM (titrated, usually from 37.8 µM), without a hit: at the highest dose activity change, negative = inhibition, hits mostly inhibitors; active = well fitted inhibition curve with a large enough effect; inconclusive = small, poorly fitted or top-dose-only effect, or effect the other way; inactive = flat fitted curve, though single readings scatter; tested in HEK293 cells; about a fifth of its hits are not listed in these tables; further: on the % scale 0 is the no-effect control and ±100 the full control effect; luciferase read-out
NS1 function inh – qHTS Assay for Inhibitors of Influenza NS1 Protein Function; 270,000 compounds, 0.4% hits; S. cerevisiae slowed by influenza A NS1, growth recovery by OD600; Potency, µM (top dose mostly 46.1 µM), for the others: at the top dose activity, positive = more growth; active means well fitted rising curve with a large enough effect; inconclusive means small, poorly fitted or top-dose-only effect; inactive means no such curve, though single readings can be large or run the other way; further: nearly all actives have a fitted effect of over 50% in size
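OD600 was taken as the measure of yeast growth restored by compound in an NS1-expressing S. cerevisiae strain. Cells had been washed out of glucose medium and diluted 1:100 into galactose -URA medium, pH 6.0.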
RE007 growth inh – qHTS Assay for Inhibitors of the HIV-1 protein Vpr; S. pombe RE007 Vpr strain, BacTiter-Glo ATP luminescence, 24 h; control for the full effect not named in the record; Potency, µM (series often up to 92.2 µM), inactives show top-dose activity change, negative = less growth; 360,000 compounds, 0.21% hits; AID 651644, 2012; active = well fitted falling curve with a large enough effect; inconclusive = small, poorly fitted or top-dose-only effect; inactive = no such curve, though single readings can be large or run the other way;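 further: on the % scale 0 is the no-effect control and ±100 the full control effect; nearly all actives have a fitted effect of over 50% in size; the assay follows cell death caused by Vpr and the record does not say whether a fall means rescue or toxicity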
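Fission yeast strain RE007, carrying one chromosomally integrated HIV-1 vpr copy, was seeded at OD 0.01 in PMG+AL medium with 23 nL pinned compound. After 24 h at 30 °C and 99% humidity, viability was read by BacTiter-Glo luminescence.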
Cruzain inh noDet – qHTS Assay for Promiscuous and Specific Inhibitors of Cruzain (without detergent); purified cruzain, Z-FR-AMC fluorescence, no detergent; Potency, µM, inactives show max response, negative = inhibition, actives largely listed as inhibitors; AID 1476, 2009; 200,000 compounds, 2.3% hits;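 further: plate controls were enzyme without inhibitor for no effect and buffer without enzyme for full effect; nearly all actives have a fitted effect of over 40% in size; top concentration of the series not given in the record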
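Detergent-free condition (0.00005% Triton X-100) in acetate buffer pH 5.5 with DTT. 1.5 nM enzyme and compound were pre-mixed 15 min, then 2 uM Z-FR-AMC substrate added; reaction progress from fluorescence change between first and third reads (60 s).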
2A StopGo – High Throughput Screening for Foot and Mouth Disease Virus Antivirals. Potency, µM (doses to about 57.9 µM), inactives show at the top dose signal change, negative = less light. 410,000 compounds, 1.2% hits. human cells with a luciferase reporter of 2A StopGo recoding; control for the full effect not named in the record; active = well fitted falling curve with a large enough effect; inconclusive = small, poorly fitted or top-dose-only effect; inactive = no such curve, though single readings can be large or run the other way; tested in HEK293T cells; further: on the % scale 0 is the no-effect control and ±100 the full control effect; nearly all actives have a fitted effect of over 45% in size; luciferase light after 4 h
Active calls of the source: *; ? = inconclusive; . = no result given; & = joins results of further samples; [ ] = remark or other dose. Unless noted, the call rests on the fitted dose curve; in most records, active means well fitted curve in the direction sought with a large enough effect; inconclusive means small, poorly fitted or top-dose-only effect, or another doubt; inactive means no such curve, though single readings can be large; an effect the other way counts as inactive or inconclusive. Potency means the concentration at half of the fitted maximal effect.

entry	Compound	2A StopGo	RE007 growth inh	Cruzain inh noDet	SARS PLpro yeast
1	Cc1cccc(C)c1NC(=O)c1cn(-c2ccccc2)nc1-c1ccccc1	-20%	0%	4%	0%
2	CCCCNC(=O)Cn1c(=O)c2c(ncn2CC)n(Cc2ccccc2)c1=O	-15%	5%	.	-1%
3	CN(C)CCCNC(=S)N(CCCO)Cc1cc2cc3c(cc2[nH]c1=O)OCO3	-22%	-1%	.	3%
4	O=C1NC(=O)C(c2ccc(Cl)cc2Cl)N1 (stereo unspecified)	-3%	-3%	.	.
5	CCOC(=O)CN1C(=O)COc2ccc(C(C)(C)C)cc21	-30%	23%	-1%	-2%
6	CCc1ccc(CN(C)C(=O)c2ccc3c(=O)n4c(nc3c2)CCC4)cc1	-2%	12%	.	3%
7	CCCCn1cc(S(=O)(=O)c2ccc(OCC)cc2)c(=O)c2cc(OC)c(OC)cc21	3%	.	16%	.
8	Cc1cc(S(=O)(=O)N2CCC(NC(=O)C34CC5CC(CC(C5)C3)C4)CC2)ccc1-n1cnnn1	-11%	4%	?	8%
9	COc1ccc2nc(NC(=S)N(C)C)sc2c1	-50%	-27%	10%	-17%
10	COc1ccc(C2=NS(=O)(=O)N(C)C(C(=O)NCc3ccccn3)=C2)cc1	-7%	14%	.	7%

entry	MARV entry inh	LASV entry inh	Cruzain inh Det	NS1 function inh
1	17%	-3%	-6.5%	-1%
2	.	.	.	9%
3	.	.	.	-13%
4	0%	-2%	.	.
5	8%	-1%	0.5%	-14%
6	-9%	-6%	.	7%
7	0%[46.1 µM]	?	-6.5%	.
8	4%	-1%	2.6%	4%
9	10µM*	?	-3.5%	-136%
10	.	.	.	6%

Along the list, from the results shown.
LASV entry inh, compounds 2 to 7 → ., ., -2%, -1%, -6%, ?

One compound at a time (already shown). Values in the order: 2A StopGo	RE007 growth inh	Cruzain inh noDet	SARS PLpro yeast	MARV entry inh	LASV entry inh	Cruzain inh Det	NS1 function inh
CCCCNC(=O)Cn1c(=O)c2c(ncn2CC)n(Cc2ccccc2)c1=O is entered as -15%	5%	.	-1%	.	.	.	9%
CCc1ccc(CN(C)C(=O)c2ccc3c(=O)n4c(nc3c2)CCC4)cc1 is entered as -2%	12%	.	3%	-9%	-6%	.	7%

By substructure: those above containing an aryl methoxy group.
entry	Compound	2A StopGo	RE007 growth inh	Cruzain inh noDet	SARS PLpro yeast
7	CCCCn1cc(S(=O)(=O)c2ccc(OCC)cc2)c(=O)c2cc(OC)c(OC)cc21	3%	.	16%	.
9	COc1ccc2nc(NC(=S)N(C)C)sc2c1	-50%	-27%	10%	-17%
10	COc1ccc(C2=NS(=O)(=O)N(C)C(C(=O)NCc3ccccn3)=C2)cc1	-7%	14%	.	7%

entry	MARV entry inh	LASV entry inh	Cruzain inh Det	NS1 function inh
7	0%[46.1 µM]	?	-6.5%	.
9	10µM*	?	-3.5%	-136%
10	.	.	.	6%

Other results:
entry	Compound	2A StopGo	RE007 growth inh	Cruzain inh noDet	SARS PLpro yeast
11	CC(=O)Nc1ccc(NC(=O)CN(c2ccccc2Cl)S(C)(=O)=O)cc1	8%	0%	-4%	5%
12	COc1cccc(CNC(=O)Cn2c(=O)cc(C)c3c(C)nn(C)c32)c1OC	-18%	.	-14%	.
13	Cc1cccc(CS(=O)(=O)Cc2ccc(C(=O)NCc3ccccc3)o2)c1	-21%&-22%	18%	-11%	5%
14	COc1ccc2c(c1)c(=O)oc1c(C)c(OC(C)C(=O)NCC3CCC(C(=O)O)CC3)ccc12 (stereo unspecified)	2%	-10%	.	-17%
15	O=C(NC1CC1)C1=C[C@@H](c2csc3ccccc23)C[C@@H](OCCCCO)O1	-12%	20%	.	-6%
16	CCCCC(=O)Nc1ccc(C(=O)NCC(=O)OC)cc1	11%	4%	-18%	7%
17	O=C(COC(=O)CCc1c[nH]c2ccccc12)Nc1ccccc1	-1%	-10%	.	0%
18	O=C1CN(Cc2ccccc2)CC(=O)N1	3%	7%	.	.
19	CCOc1ccccc1CNC(=O)Cn1nc(C)c2nn(-c3ccc(Cl)cc3)c(C)c2c1=O	?	.	6%	.
20	O=C(CSc1ccc2nnc(-c3ccccn3)n2n1)Nc1ccccc1C(F)(F)F	-6%	1%	.	-1%

entry	MARV entry inh	LASV entry inh	Cruzain inh Det	NS1 function inh
11	-5%	16%	3.4%	-1%
12	.	-3%[46.1 µM]	2.4%	.
13	.	-22%[46.1 µM]	0.0%	-3%
14	.	.	.	9%
15	.	.	.	-4%
16	9%	7%	-2.2%	-17%
17	-1%	-3%	.	.
18	0%[46.1 µM]	9%[46.1 µM]	.	.
19	.	5%[46.1 µM]	2.1%	.
20	?	0%	.	4%

Additional results.
entry	Compound	2A StopGo	RE007 growth inh	Cruzain inh noDet	SARS PLpro yeast
21	Cc1nc(N2CCN(c3ccccc3)CC2)nc2c1C(=O)CC(C)C2 (stereo unspecified)	1%	10%	-5%	-7%
22	Cc1ccc(-c2noc(-c3cc(-c4ccc(F)cc4)n[nH]3)n2)cc1	0%	.	-8%	.
23	O=C(O)CCC(=O)NN1C(=O)c2ccccc2NC1c1ccco1 (stereo unspecified)	14%	2%	.	1%
24	C=CCOC(=O)C1=C(C)Nc2ncnn2C1c1cc(Br)ccc1F (stereo unspecified)	13µM*	2%	10%	-5%
25	CS(=O)(=O)N1CCc2cc(C(=O)Nc3ccc(COCC(F)(F)F)cc3)ccc21	?	-4%	.	3%
26	CCOC(=O)N1CCN(S(=O)(=O)N2CCCC(C(=O)NCCc3ccc(Cl)cc3)C2)CC1 (stereo unspecified)	?	-2%	.	1%
27	C#CCn1c(C)cc(C)c(S(=O)(=O)c2ccccc2)c1=O	58%[activator]	-11%	.	-1%
28	CCN(CC)CCN=C(C)c1c(O)n(-c2ccccc2OC)c(=O)[nH]c1=O	8%	1%	10%	5%
29	Cc1cccc(C)c1NC(=O)C(c1ccc([N+](=O)[O-])cc1)N1CCCCC1 (stereo unspecified)	-23%	43%	-1%	-17%
30	Cc1ccc2[nH]c3c(=O)n(CC(=O)N(C)c4cc(Cl)ccc4C)ncc3c2c1	0%	.	8%	.

entry	MARV entry inh	LASV entry inh	Cruzain inh Det	NS1 function inh
21	?	5%	-5.1%	-12%
22	.	-1%[46.1 µM]	2.9%	.
23	.	.	.	3%
24	?	-26%	-3.4%	-4%
25	.	.	.	7%
26	.	.	.	-17%
27	5%[46.1 µM]	10%	.	3%
28	2%	-16%	3.0%	-2%
29	-25%	-6%	1.3%	2%
30	.	8%[46.1 µM]	-6.2%	.

Sorted by formula weight (ascending): some entries from above.
entry	Compound	2A StopGo	RE007 growth inh	Cruzain inh noDet	SARS PLpro yeast
18	O=C1CN(Cc2ccccc2)CC(=O)N1	3%	7%	.	.
21	Cc1nc(N2CCN(c3ccccc3)CC2)nc2c1C(=O)CC(C)C2 (stereo unspecified)	1%	10%	-5%	-7%
30	Cc1ccc2[nH]c3c(=O)n(CC(=O)N(C)c4cc(Cl)ccc4C)ncc3c2c1	0%	.	8%	.

entry	MARV entry inh	LASV entry inh	Cruzain inh Det	NS1 function inh
18	0%[46.1 µM]	9%[46.1 µM]	.	.
21	?	5%	-5.1%	-12%
30	.	8%[46.1 µM]	-6.2%	.

Additional records follow.
entry	Compound	2A StopGo	RE007 growth inh	Cruzain inh noDet	SARS PLpro yeast
31	N#CCC(=O)Nc1ccc(C(=O)OCC(=O)NCCCc2ccccc2)cc1	-3%	-5%	.	2%
32	CC1=C(C(=O)Nc2cccnc2)C(c2ccc(C(C)C)cc2)n2ncnc2N1 (stereo unspecified)	-3%	10%	1%	-15%
33	CC1=C(C(=O)OCC2CCCO2)C(c2ccc(O)cc2)NC(=O)N1 (stereo unspecified)	-8%	-11%	-3%	11%
34	N#CC1=C(N)C(C#N)(C#N)[C@H](c2c(F)cccc2F)[C@H]2CC3(CC=C12)OCCO3	?	6%	?	2%

entry	MARV entry inh	LASV entry inh	Cruzain inh Det	NS1 function inh
31	.	.	.	-2%
32	.	.	-3.3%	1%
33	5%	1%	-0.3%	1%
34	?	-16%	-4.2%	?
